# KCNQ2 enhance: potentiators of rat KCNQ2 potassium channel. O88943. CHO-K1 KCNQ2, FluxOR thallium flux fluorescence; stronger effect = higher value. B-score at 10 µM. 310,000 compounds, 0.54% hits. AID 2239;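 active means fluorescence ratio B-score at least 3 SD of library B-scores, with initial fluorescence B-score within 3 SD, cut at about 5.3 in these data; same plate scores as AID 2156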;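 further: B-score of peak minus minimum over baseline fluorescence ratio after K+ and Tl+ stimulus; positive B-score means potentiation of KCNQ2 with more thallium influx and brighter signal; only the inactives scoring about 0 or higher are listed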
# Target sequence (O88943 whole entry, looked up): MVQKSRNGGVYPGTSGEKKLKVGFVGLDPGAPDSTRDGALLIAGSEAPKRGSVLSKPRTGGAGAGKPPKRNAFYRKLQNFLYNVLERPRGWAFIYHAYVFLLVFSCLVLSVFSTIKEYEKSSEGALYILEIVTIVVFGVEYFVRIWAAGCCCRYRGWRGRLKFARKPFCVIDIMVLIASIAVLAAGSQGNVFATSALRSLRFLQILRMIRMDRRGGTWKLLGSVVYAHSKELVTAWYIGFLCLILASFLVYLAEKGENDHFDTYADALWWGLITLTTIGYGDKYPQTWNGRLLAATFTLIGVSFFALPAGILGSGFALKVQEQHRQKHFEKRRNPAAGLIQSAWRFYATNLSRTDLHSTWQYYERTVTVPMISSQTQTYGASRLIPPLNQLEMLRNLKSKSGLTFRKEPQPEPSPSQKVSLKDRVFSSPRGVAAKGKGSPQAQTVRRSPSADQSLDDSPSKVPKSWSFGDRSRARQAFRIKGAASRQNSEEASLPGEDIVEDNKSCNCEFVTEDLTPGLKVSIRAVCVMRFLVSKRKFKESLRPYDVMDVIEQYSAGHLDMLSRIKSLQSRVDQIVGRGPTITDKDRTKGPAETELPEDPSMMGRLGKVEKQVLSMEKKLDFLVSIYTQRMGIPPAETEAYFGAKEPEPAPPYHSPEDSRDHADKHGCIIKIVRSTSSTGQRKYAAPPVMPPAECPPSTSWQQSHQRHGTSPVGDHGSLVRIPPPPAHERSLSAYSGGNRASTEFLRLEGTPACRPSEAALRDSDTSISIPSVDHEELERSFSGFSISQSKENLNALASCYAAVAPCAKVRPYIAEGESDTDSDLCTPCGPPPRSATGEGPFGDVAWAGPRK
# KCNQ2 enhance baseline: recorded beside KCNQ2 enhance, whose call it bears; B-score; compound at 10 µM; measured here: initial fluorescence intensity artifact check;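 brightness before thallium and not channel activity; 0 = typical well and far values either way flag optical interference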
# An asterisk follows results filed as active. Only part of the results is shown, so the mix of outcomes need not match the whole.
SMILES,KCNQ2 enhance,KCNQ2 enhance baseline
CC(NC(=O)c1ccccc1)C(=O)OCC(=O)c1ccc(Br)cc1 (stereo unspecified),0.1,-0.13
O=C(CSCc1c(F)cccc1Cl)NCC1CCCO1 (stereo unspecified),0.31,0.25
O=C(O)COc1ccc(Cl)cc1CO,0.28,0.45
CCCCC(=O)Nc1ccc(N2CCN(C(=O)c3ccco3)CC2)cc1,1.76,-0.04
Cn1c(SCc2nc(-c3ccc(Br)cc3)no2)nnc1-c1ccco1,0.91,-1.18
CCOc1cc(/C=N\NC(=O)c2ccc(NC(=O)C(C)(C)C)cc2)ccc1OC(=O)c1cccc(C)c1,0.65,-1.64
O=C(CCc1ccccc1)Nc1ccc2c(c1)OCO2,1.37,-1.51
COc1ccc(CC(=O)NCc2n[nH]c(=S)n2-c2ccccc2OC)cc1,0.71,0.86
N#C/C(=C\c1cccnc1)c1ccccc1[N+](=O)[O-],0.26,-0.65
COc1ccc2oc(=N)c(C(=O)Nc3ccc(F)cc3)cc2c1,0.37,-0.72
CS(=O)(=O)N1CCN(c2ccc(NC(=O)COc3ccccc3)cc2)CC1,0.97,-0.41
Cc1cccc(CN(C(=S)Nc2c(C)cccc2C)c2cccnc2)c1,0.02,0.94
Brc1ccccc1OCCCN1CCCC1,0.66,-1.41
O=C(C[n+]1ccc(C(=O)NCc2ccccc2)cc1)c1ccc(Cl)cc1,1.5,-1.98
N#CCCN(Cc1cccnc1)C(=S)NCc1ccco1,0.89,-0.49
CCOC(=O)CNC(=O)CSc1ncnc2c1cnn2Cc1ccccc1,0.6,0.28
COc1cc2c(cc1OC)CN(C(=O)c1ccc([N+](=O)[O-])o1)CC2,0.55,-0.54
CCOC(=O)/C(C)=N/Nc1nc(-c2ccc(NC(C)=O)cc2)cs1,2.1,-0.07
CCOc1ccc(NC(=O)CCN2C(=O)c3cccc([N+](=O)[O-])c3C2=O)cc1,0.72,-0.76
N#Cc1ccc(-c2csc(NC(=O)C3CC3)n2)cc1,0.34,0.42
Cc1ccc(NC(=O)C/C(N)=N/O)cc1Cl,1.21,0.96
N#CC(C#N)=Cc1cc2ccccc2nc1N1CCOCC1,0.3,0.08
CCN1CCN(CCCNC(=O)c2ccc3c(c2)NC(=O)/C(=C\c2cccc(C)c2)S3)CC1,2.19,-1.99
Cc1ccc(S(=O)(=O)CCC(=O)NCc2ccccc2F)cc1,0.63,0.1
O=C(Nc1ccccc1)c1ccc(OC(=O)c2cc3ccccc3o2)cc1,0.92,1.46
# New compounds follow:
SMILES,KCNQ2 enhance,KCNQ2 enhance baseline
COC(=O)c1cc(OC)c(OC)cc1N1C(=O)CC(C)(C)CC1=O,1.43,-0.43
COc1ccc(-c2cc3ccc(OCC(C)=O)cc3oc2=O)cc1OC,0.98,-0.27
COc1ccc(NC(=S)N/N=C/c2ccc(F)cc2)cc1OC,0.15,-1.92
O=C(NCc1ccco1)c1cnn2c1NC(c1ccc(Br)cc1)CC2C(F)(F)F (stereo unspecified),0.79,-1.39
Cc1ccc2c(c1)-c1c(ssc1=S)C(C)(C)N2C(=O)CSc1nncn1C,1.69,-1.75
CCc1cc(=O)oc2cc(OC3CCCCC3=O)ccc12 (stereo unspecified),0.14,2.31
COc1ccc(OC)c(S(=O)(=O)N2CCN(C)CC2)c1,1.79,-0.47
CCN1CCN(C(=O)C2CC(c3ccc(F)cc3)=NO2)CC1 (stereo unspecified),0.32,-0.19
COc1ccc(OC)c(N(CC(=O)NCCc2ccc(OC)c(OC)c2)S(=O)(=O)c2ccccc2)c1,0.01,1.19
CCOc1ccc(C(=O)OCC(=O)Nc2cc(C)on2)cc1OCC,1.48,-1.48
CCOC(=O)c1cccc(NS(=O)(=O)c2c(C)[nH]c(C)c2C(=O)N2CCCC2)c1,1.75,0.77
Cc1ccc(C)c(SCC(=O)Nc2nnc(-c3ccccc3)o2)c1,1.19,-0.09
Cc1nnc(SCc2cc(=O)[nH]c(Nc3nc(C)c4cc(C)c(C)cc4n3)n2)s1,0.7,-0.65
CC(C)NC(=O)c1ccc2c3n(nc2c1)-c1ccc(Cl)cc1CO3,0.01,0.39
Cn1c(=O)c2cc(S(=O)(=O)NC(C(=O)NCc3ccccn3)c3ccccc3)ccc2n(C)c1=O (stereo unspecified),1.94,-1.13
COCCNc1ccc(S(=O)(=O)N2CCCC2)cc1[N+](=O)[O-],1.33,-0.38
O=C(COC(=O)C1=COCCO1)Nc1ccccc1OC(F)F,1.44,0.08
Cc1cc(C)n(-c2ccnc3cc(Cl)ccc23)n1,0.06,-0.6
CN1CCN(C(=O)c2ccc(COc3ccc(Cl)cc3Cl)cc2)CC1,1.6,1.16
N#Cc1c(-c2c(Cl)cccc2Cl)noc1/C=C/Nc1ccc(C(=O)O)cc1,0.61,-0.21
COc1ccc(C2C(C(C)=O)=C(C)Nc3ncnn32)cc1OC (stereo unspecified),0.28,-0.67
CCNC(=S)NNC(=O)c1nn(C)c(C)c1Cl,0.07,-0.61
Cn1c(=O)[nH]c(=O)c2c1nc(N1CCN(c3ccccc3)CC1)n2CCSc1ncccn1,0.71,-0.21
CN(CC(=O)Nc1cccc(F)c1)CC(=O)Nc1cccc([N+](=O)[O-])c1,1.21,-1.94
O=C(O)COc1ccccc1/C=N/NC(=O)c1cc2ccccc2cc1O,0.11,-0.73

# Taken from the listing (7 entries):
SMILES,KCNQ2 enhance,KCNQ2 enhance baseline
Cc1nnc(SCc2cc(=O)[nH]c(Nc3nc(C)c4cc(C)c(C)cc4n3)n2)s1,0.7,-0.65
CC(C)NC(=O)c1ccc2c3n(nc2c1)-c1ccc(Cl)cc1CO3,0.01,0.39
Cn1c(=O)c2cc(S(=O)(=O)NC(C(=O)NCc3ccccn3)c3ccccc3)ccc2n(C)c1=O (stereo unspecified),1.94,-1.13
COCCNc1ccc(S(=O)(=O)N2CCCC2)cc1[N+](=O)[O-],1.33,-0.38
O=C(COC(=O)C1=COCCO1)Nc1ccccc1OC(F)F,1.44,0.08
Cc1cc(C)n(-c2ccnc3cc(Cl)ccc23)n1,0.06,-0.6
CN1CCN(C(=O)c2ccc(COc3ccc(Cl)cc3Cl)cc2)CC1,1.6,1.16

# The list goes on.
SMILES,KCNQ2 enhance,KCNQ2 enhance baseline
CC(=O)OC[C@H]1O[C@@H](O/N=C/C[C@@H]2C=C[C@H](OC(C)=O)[C@@H](COC(C)=O)O2)[C@H](OC(C)=O)[C@@H](OC(C)=O)[C@@H]1OC(C)=O,0.11,-1.01
COc1cc(CCCN2C(=S)NC[C@@H]2CC2CCCCC2)cc(OC)c1OC,0.76,-0.15
O=C(NNC(=S)Nc1cccc2ccccc12)c1cccc(Br)c1,1.57,-1.9
O=C(Nc1ccc(O)cc1)c1ccc2c(c1)C(=O)N(Cc1ccco1)C2=O,0.23,-2.95
O=C(Nc1ccc(CN2CCOCC2)cc1)c1ccc(F)cc1,0.92,1.64
O=C(c1cccs1)N1CCC(N2CCN(c3ccccc3)CC2)CC1,0.39,0.06
Cc1ccc(S(=O)(=O)N2CCOCC2)cc1C(=O)NCc1ccco1,0.13,-0.72
O=C1c2c(O)cc(O)cc2O[C@@]12c1c(cc(O)c3c1O[C@H](c1ccc(O)cc1)[C@@H](O)C3)O[C@@H]2c1ccc(O)cc1,2.16,1.31
CCOC(=O)CC1C(=O)NCCN1Cc1cccc(OC)c1 (stereo unspecified),0.31,-0.31
COc1cccc(C(=O)Nc2ccc3[nH]c(=O)[nH]c3c2)c1OC,1.76,-0.4
CCOC(=O)c1c(NC(=O)CSc2ncccn2)sc2c1CC(C)(C)NC2(C)C,1.44,0.08
CC(C)NC(=S)N/N=C/c1ccc(N2CCOCC2)cc1,0.01,-1.69
CCCNC(=O)NCCC12CC3CC(CC(C3)C1)C2,1.74,-0.84
O=C(Nc1ccccn1)N1CCOCC1,1.2,-1.61
CN(/N=C/c1ccncc1)C1=NCCN1,0.03,0.36
Cc1ccc2nc(NC(=O)CS(=O)(=O)Cc3ccccc3)sc2c1,0.29,0
O=C(CSc1n[nH]c(-c2cccnc2)n1)Nc1ccccc1C(F)(F)F,0.34,0.69
CCOC(=O)c1cc([N+](=O)[O-])sc1N,0.52,-0.29
CC(C)c1nnc(NC(=O)CCS(=O)(=O)c2ccccc2)s1,0.23,-1.64
CC(=O)c1cnc(Nc2nc(C)c3ccccc3n2)nc1C,0.42,-0.04
O=C(NCc1ccccc1)c1ccc(CS(=O)(=O)Cc2ccc(F)cc2)o1,0.85,0.75
O=C1CN(c2ccccc2Cl)C(=O)CN1c1ccccc1Cl,1.72,-0.89
COc1ccc(-c2n[nH]c(=S)n2N)c(OC)c1,2.01,-0.42
Cn1c(=O)c(=O)n(C)c2cc(N3CCOCC3)c(NS(=O)(=O)c3ccc(F)c(Cl)c3)cc21,0.31,0.87
Cc1cccc(-n2c(C)nc3ccsc3c2=O)c1,0.79,2.26
# Next structures.
SMILES,KCNQ2 enhance,KCNQ2 enhance baseline
CC[C@@]12C(=O)N(c3cccc(F)c3)C(=O)N1[C@H](c1cccc(C)c1)[C@@H]1C(=O)N(Cc3ccccc3)C(=O)[C@@H]12,0.68,-1.26
Oc1ccc(-c2cnc(-c3ccc(O)cc3)nc2)cc1,2.5,0.9
COC(=O)N/N=C/c1ccc(OC(=O)/C=C/c2ccco2)cc1,0.56,3.24
O=C(O)CCCC(=O)Nc1cccc(C(F)(F)F)c1,0.82,-0.36
CCOC(=O)CSc1nc2ccccc2n1C(=O)OCC,0.14,1.21
Cc1ccc(-c2noc(CNCCCN(C)C)n2)cc1,0.21,-0.27
CSc1nc2ccccc2n1CC(=O)Nc1ccccc1,1.57,-0.53
CCC1CCCCN1CCCNC(=O)COc1cc(=O)n(C)c2ccccc12 (stereo unspecified),1.96,-0.74
Cc1nc2nc(SCC(=O)c3cccc([N+](=O)[O-])c3)[nH]c2cc1Br,0.18,0.26
NC(=O)C1Cc2ccccc2CN1S(=O)(=O)c1ccc(Cl)s1 (stereo unspecified),0.22,1.22
N#CC(C(=O)NCc1ccco1)c1nc2ccccc2nc1N1CCOCC1 (stereo unspecified),1.79,-0.13
CC1(C)SC2c3ccccc3C(=O)N2[C@@H]1C(=O)NCc1ccco1 (stereo partly specified),1.99,0.27
CCCC(c1nnnn1CS(=O)(=O)c1ccc(C)cc1)N1CCN(CC)CC1 (stereo unspecified),5.47*,4.15*
CCCCC(CC)C1OCC(CN2CCCC2)O1 (stereo unspecified),1.69,-0.79
CCOC(=O)CNC(=O)Cn1cnc2c(cnn2-c2ccc(C)cc2)c1=O,0.09,-0.86
CCCCn1c(=O)c(CCC(=O)OCC(=O)Nc2ccc(C)c(Cl)c2)nc2ccccc21,0.44,0.53
CCOC(=O)c1c(C)[nH]c(C(=O)OCc2ccc(C)cc2)c1C,0.69,0.93
CCc1cccc(NC(=O)CCC(=O)O)c1,0.01,0.35
Cn1c(=O)c2c(nc(CN3CCC(C(N)=O)CC3)n2CCc2ccccc2)n(C)c1=O,0.44,-1.58
O=C(O)CCCC(=O)Nc1cc([N+](=O)[O-])ccc1O,0.07,-0.39
Cc1ccc(C(=O)N/N=C/c2ccc3c(c2)OCO3)o1,1.29,-0.83
COc1ccc(-n2cnnc2SCC(=O)c2ccc(S(=O)(=O)N3CCOCC3)cc2)cc1,0.15,0.89
O=C(O)Cc1sc(-c2ccccc2)nc1-c1ccccc1,1.49,-0.85
CC12CCC(=O)N1C(C(=O)Nc1ccc(Br)cc1Cl)CS2 (stereo unspecified),0.41,-2.16
O=C1C=C(N2CCN(C3=CC(=O)CCC3)CC2)CCC1,0.12,1.14
# New compounds follow
SMILES,KCNQ2 enhance,KCNQ2 enhance baseline
CC(NC(=O)CCC(=O)N1CCCCCC1)c1ccccc1 (stereo unspecified),0.46,-1.35
CC(C)c1ccc(OCC(=O)NCCO)cc1,0.49,0.1
Cc1ccccc1C(=O)N(Cc1nc2ccccc2c(=O)[nH]1)C1CCCC1,1.65,-0.42
COc1ccccc1N1CCN(Cc2nc3ccccc3c(=O)n2CC(C)=O)CC1,1.91,-0.09
CCc1ccc(S(=O)(=O)/N=C2\C=CC(=O)c3ccccc32)cc1,0.32,-3.03
CCCCCC(=O)NNC1=NCC(Cc2cccc(Cl)c2)S1 (stereo unspecified),2.68,0.76
NS(=O)(=O)c1ccc(N=Nc2ccc(=O)[nH]c2O)cc1,2.74,-1
COc1ccc(NC(=O)CCc2nnc3ccc(NCc4ccco4)nn23)cc1,0.05,0.02
COc1ccc(CNC(=O)Cn2cnc3c(=O)n(C)c(=O)n(C)c32)cc1,0.02,0.91
O=C(NC(=S)Nc1cc(C(F)(F)F)ccc1Cl)c1ccccc1,1.03,0.26
COc1ccc(N(Cc2cc3ccc(C)cc3[nH]c2=O)C(=O)C2CCCO2)cc1 (stereo unspecified),1.16,-0.14
O=S(=O)(c1ccc(F)c(F)c1F)N1CCN(C(=S)NC2CC3CCC2C3)CC1 (stereo unspecified),1.66,0.26
CC(=O)Nc1ccc(-n2c(C)c(C(C)=O)c(C(C)=O)c2C)cc1,0.94,0.24
CCC(C)NCCOc1ccc(Br)cc1 (stereo unspecified),0.08,-1.08
Cc1ccc(NC(=O)CN(C)C(=O)Cn2nnc(-c3ccccc3)n2)cc1,1.49,-1.4
COc1cccc(N(Cc2nnc3n2CCCCC3)C(=O)Nc2ccccc2F)c1,0.25,1.7
Cc1ccc(C(=O)N2CC(C)OC(C)C2)c(Cl)c1 (stereo unspecified),1.6,-0.43
Cc1ccnc(NC(=O)COc2c(C)cc(C)cc2[N+](=O)[O-])c1,0.13,0.84

# An excerpt of these results, with the structure last:
KCNQ2 enhance,KCNQ2 enhance baseline,molecule
0.05,0.02,COc1ccc(NC(=O)CCc2nnc3ccc(NCc4ccco4)nn23)cc1
0.02,0.91,COc1ccc(CNC(=O)Cn2cnc3c(=O)n(C)c(=O)n(C)c32)cc1
1.03,0.26,O=C(NC(=S)Nc1cc(C(F)(F)F)ccc1Cl)c1ccccc1
1.16,-0.14,COc1ccc(N(Cc2cc3ccc(C)cc3[nH]c2=O)C(=O)C2CCCO2)cc1 (stereo unspecified)

# Bioassay records (PubChem)
